NPYLR7 agonist = mosquito NPYLR7 agonism. activation, % at 10 µM. 270,000 compounds, 0.15% hits. HEK293T NPYLR7/Galpha15, GCaMP6s calcium fluorescence. AID 1259423; in the data active means activation above about 40%;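 further: 0% = vehicle and 100% = reference agonist at the receptor; some compounds past the cut are filed as inactive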
NPYLR7 agonist max-min = second read-out of NPYLR7 agonist, no call of its own (marks repeat the call); activation, %; measured here: Max-Min RFU normalised activation; some inactives read as strong as hits;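 span of the calcium signal over five minutes; 0% = vehicle and 100% = native peptide agonist; compound fluorescence can raise it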
Numbers without * were called inactive.

item	mol	NPYLR7 agonist	NPYLR7 agonist max-min
1	CCCCS(=O)(=O)N1CCN(c2cc(S(=O)(=O)N(C)CCc3ccccc3)ccc2OC)CC1	2	3
2	Cc1ccc(N2CCN(C(=O)c3ccc(Cl)cc3Cl)C(C)C2=O)c(C)c1 (centres undefined)	1	2
3	O=C1CCC(C(=O)N2CCCC(CNC(=O)c3ccc(-c4ccccc4)cc3)C2)=NN1 (centres undefined)	5	4
4	CC(C(=O)Nc1ncccn1)N(C)C1CCCN(c2cccnn2)C1 (centres undefined)	6	5
5	O=C(COc1cccc2ccccc12)Nc1nccs1	8	1
6	CC(C)Cc1cc(CNc2nc(-c3cccnc3)nc3c2CCNC3)no1	-9	-8
7	CC(C)OCCC1CCCCN1S(=O)(=O)c1cnn(C)c1 (centres undefined)	9	5
8	Fc1ccc2c(c1)c1nc3ccccc3nc1n2Cc1cc(Cl)cc2c1OCOC2	-5	-9
9	Cn1c(=O)c2c(nc(CN3CCOCC3)n2Cc2ccccc2Cl)n(C)c1=O	4	5
10	O=C(CCOc1ccccc1)Nc1ccnn1C1CCN(C2CCSCC2)CC1	-7	-9
11	COc1ccc(F)c(CC2(CCC(=O)N(C)Cc3nc4c(s3)CCCC4)CCC(=O)N2)c1 (centres undefined)	2	-1
12	CC(C)CCN1CCN(c2nc3c(c(=O)[nH]c(=O)n3C)n2Cc2ccc(Cl)cc2)CC1	1	29

Continued, starting with the last 3 of the part before.
item	mol	NPYLR7 agonist	NPYLR7 agonist max-min
10	O=C(CCOc1ccccc1)Nc1ccnn1C1CCN(C2CCSCC2)CC1	-7	-9
11	COc1ccc(F)c(CC2(CCC(=O)N(C)Cc3nc4c(s3)CCCC4)CCC(=O)N2)c1 (centres undefined)	2	-1
12	CC(C)CCN1CCN(c2nc3c(c(=O)[nH]c(=O)n3C)n2Cc2ccc(Cl)cc2)CC1	1	29
13	CCCCCCCNC(=O)/C(C#N)=N\Nc1nc[nH]c1C(N)=O	-8	-5
14	CCOc1ccc(Nc2nc(NCC(C)C)nc3c2cnn3-c2ccccc2)cc1	0	-2
15	Cn1cc(CC(=O)N2CCN(C(=O)C3CC3)CC2)c2ccccc21	8	5
16	O=C(COC(=O)c1ccccc1COc1ccccc1)NC1CC1	8	5
17	COc1ccccc1-c1nnc(NC(=O)c2cccc(NS(=O)(=O)c3ccccc3)c2)o1	10	10
18	Cc1nnc(N2CCN(C(=O)C3COc4ccccc4O3)CC2)c(C#N)c1C (centres undefined)	-5	-5
19	O=C(c1cc(Cl)ccc1Cl)N1CCC(Cn2ccnc2)CC1	-1	-4
20	CCOc1ccc(-c2ccc(=O)n(CCNC(=O)c3cccnc3Cl)n2)cc1	-1	-1
21	CC(C)N1CCNC(=O)C1CC(=O)NCCc1nc2ccc(Cl)cc2[nH]1 (centres undefined)	10	-1
22	COc1ccc2c(c1)CC(NCCN1N=C(c3ccccc3)CCC1=O)CC2 (centres undefined)	26	20
23	Cc1ccccc1-c1ccc2c(c1)N(CCN1CCOCC1)C(=O)COC2	11	9
24	COCCN(Cc1cccn1C)C(=O)CN(C(=O)c1cc(C(F)(F)F)cc(C(F)(F)F)c1)C(C)C	-5	2
25	CCCN(C(=O)Cn1cnc2c(cnn2C)c1=O)C1CCc2ccccc2C1 (centres undefined)	2	-1
26	COc1ccc(CNC(=O)c2cnc3ccccc3n2)cc1C(=O)O	9	6
27	COc1cccc(Cn2c(=O)c(C(=O)Nc3ccccc3)nn(-c3cccc(OC)c3)c2=O)c1	9	10
28	N#Cc1nc2c(S(=O)(=O)c3ccccc3)c(N)n(Cc3ccc4c(c3)OCO4)c2nc1C#N	1	6
29	Cc1c(C(=O)N2CCN(S(=O)(=O)c3ccc(F)cc3F)CC2)cnn1-c1ccccc1	1	5
30	CCc1cc(S(=O)(=O)NC2CCCCC2)ccc1OC	-15	-21
31	CS(=O)(=O)c1ncc(CN2CCCCC2c2nccs2)n1CCCc1ccccc1 (centres undefined)	3	1
32	Cc1nc(C)c(CC(=O)NC2CC(=O)N(C3CCCCCC3)C2)s1 (centres undefined)	14	1
33	Cc1nnsc1CN(C)Cc1nc2ccccc2n1C(C)C	3	2
34	O=C1O[C@@H]2[C@@H]3NC(=S)N(c4ccc(Cl)cc4)[C@@H]3[C@H]1C[C@H]2O	-7	-14
35	COc1ccc(OCC(O)CN(CCN2CCOCC2)Cc2ccc(OC)c(OC)c2)cc1 (centres undefined)	2	6
36	CCN1CCN(c2nc3c(c(=O)[nH]c(=O)n3C)n2Cc2ccccc2C)CC1	10	15
37	CC(NCc1c(C(=O)N2CCCC2)nc2sccn12)c1ccc(F)cc1 (centres undefined)	-9	-14
38	CC1(C)O[C@@H]2C[C@@](OCc3ccccc3F)(C(=O)NC3CC3)CC(OCc3ccc(C(F)(F)F)cc3)[C@@H]2O1 (some centres undefined)	8	1
39	CCOC(=O)c1cnc(Nc2nc3ccccc3s2)nc1CSc1nnc(C)s1	1	1
40	N#CCCn1[nH]c(-c2ccccc2)cc1=O	-9	-17
41	COc1ccc(OC)c(NC(=O)c2cccnc2NC(C)C)c1	-4	-12
42	O=C(NC1CC2CCC(C1)N2CCc1ccc(F)cc1)c1ccc(Cl)cc1 (centres undefined)	2	-1
43	Cc1cc2nc(-c3cnc(NCC4CCCO4)nc3)[nH]c2cc1C (centres undefined)	0	-4
44	Fc1ccc(-c2c[nH]c(=S)[nH]2)cc1	0	1
45	COC(=O)c1c(NC(=O)CSc2nc(C)nc3sc4c(c23)CCC4)sc(C)c1C	-3	-7
46	CCOC(=O)C1CCN(C(c2ccccn2)c2c(C)[nH]c3ccccc23)CC1 (centres undefined)	0	5
47	O=C(C(c1ccccc1)c1ccccc1)N1CCC2(CC1)SCCN2C(=O)c1ccc(C(F)(F)F)cc1	-11	-8
48	C/C(Cl)=C/CN1CCCC1	13	4
49	COCc1cc(CN2CCN(Cc3cccc(Cl)c3)CC2)ccc1OC	6	5
50	Cc1c(C(C)NCc2cccn2-c2ncccn2)cnn1-c1cccc(F)c1 (centres undefined)	6	2
51	CC(C)c1ccc(CC2(C)C(=O)Nc3cc(-c4ccccc4Cl)ccc32)cc1 (centres undefined)	1	1
52	O=C(Cc1ccc([N+](=O)[O-])cc1)Oc1coc(CSc2ncccn2)cc1=O	-14	-13
53	C=CCn1c(SCC(=O)c2ccc[nH]2)nnc1C1CCCCC1	0	3
54	Cc1nc2ncc3c(=O)n(Cc4ccccc4Cl)ccc3n2n1	2	3
55	CCc1nc(CC)n(Cc2nnc(-c3ccc(C#N)cc3)o2)n1	2	1
56	Cc1ccccc1-n1c(SCc2nc(C(=O)NCCCN3CCCCC3C)cs2)nnc1-c1ccco1 (centres undefined)	8	9
57	CCN(CC)c1nc(-c2ccc(C)cc2)nc2cc(Cl)ccc12	-8	-1
58	CN(CC(O)COCc1ccccc1NCc1ccc(Cl)s1)C1CCCCC1 (centres undefined)	8	10
59	O=C(Cn1nc2c(c1NC(=O)CSc1ccncc1)CSC2)NCc1ccccc1	-3	1
60	CN1C[C@@H]2CC[C@H](CC1=O)N2c1cc(N2CCOCC2)ncn1	1	1
61	CN(C)S(=O)(=O)c1ccc(C(=O)Nc2ccccn2)o1	-6	-14
62	O=C1CC(c2ccco2)Cc2nc3nc(-c4cccnc4)nn3cc21 (centres undefined)	-1	-3
63	CCn1cc(C(=O)NCC(OC)OC)c2nn(-c3ccccc3)c(=O)c-2c1	4	3
64	CCNc1nc(C)c(C(=O)NC2CCCN(Cc3cccc(OC)c3)C2)s1 (centres undefined)	0	-4
65	COC(=O)c1ccc(NC(=O)Cn2c3ccc(C)cc3c3ncn(Cc4ccccc4)c(=O)c32)cc1	2	-3
66	Cc1nnc(Cl)c2nn(-c3ccc(F)cc3Cl)c(C)c12	-1	2
67	COCc1c(Br)cccc1NC(=O)c1c(C)noc1C	3	0
68	CCOc1ccc2c(C)nc(NC3=NC(C)(C)C=C(C)N3)nc2c1	0	-3
69	CCc1nc2c(OCC=C(C)C)cccn2c1N(C)C(=O)c1cccs1	2	-6
70	Cc1nn(-c2ccccc2)c(C)c1CC(=O)N1CCc2c(c(C(=O)N(C)C)nn2Cc2ccccc2)C1	6	-9
71	COc1ccc(OC)c(-n2ccc3c(cnc4nc(SC)nn43)c2=O)c1	4	7
72	COc1cccc(C(=O)N2CCSC23C(=O)N(Cc2ccc(F)cc2F)c2ccccc23)c1 (centres undefined)	5	6

Complete entries, quoted from the list. Screens in order: NPYLR7 agonist	NPYLR7 agonist max-min
Cc1nn(-c2ccccc2)c(C)c1CC(=O)N1CCc2c(c(C(=O)N(C)C)nn2Cc2ccccc2)C1 is entered as 6	-9
Cc1nnc(Cl)c2nn(-c3ccc(F)cc3Cl)c(C)c12 is entered as -1	2

Later entries:
item	mol	NPYLR7 agonist	NPYLR7 agonist max-min
73	O=S(=O)(c1cccs1)N1CCN(C(c2ccccc2)c2ccc(Cl)cc2)CC1 (centres undefined)	5	5
74	CCN1C(=O)/C(=C/C=C2/SCCN2CC)SC1=S	-1	-5
75	CCn1ncc2c1NC(=O)C(C#N)C21CCCC1 (centres undefined)	0	1
76	COc1ccc(-c2csc(N(C)C)n2)cc1Br	0	-3
77	CC(C)CC(=O)N1CCN(c2ncnc3c2nnn3-c2ccccc2)CC1	-13	-24
78	Cc1cc[n+](C2=C(c3c(C)[nH]n(-c4ccccc4)c3=O)C(=O)N(C(C)C)C2=O)cc1	-5	-4
79	CCC(C)C(=O)N1CCN(Cc2noc(-c3cccs3)n2)CC1 (centres undefined)	11	7
80	O=C(O)Cc1csc(SCc2ccc(F)cc2)n1	0	-2
81	COc1ccc(C(=O)NCC(=O)N=Nc2c(O)n(Cc3ccc4c(c3)OCO4)c3ccccc23)cc1	-1	-1
82	O=S(=O)(c1ccc(-n2cnnn2)cc1)N1CCNCC1	6	1
83	O=c1[nH]c(-c2cccs2)nc2sc3c(c12)CCCC3	20	18
84	CCOC(=O)C1=C(O)/C(=C\c2ccc(O)c(OCC)c2)SC1=Nc1cccc(C(F)(F)F)c1	10	6
85	Cc1ccc(Nc2nc(NCCCO)nc3c2cnn3-c2ccccc2)cc1C	0	-2
86	O=S(=O)(Nc1ccccc1N1CCOCC1)c1ccc(Br)cc1Cl	0	7
87	Cc1nn(C)c(Oc2cccnc2)c1NC(=O)CSCCC(C)C	-10	-16
88	CN(C)CCCN(C(=O)C1=COCCO1)c1nc2ccc(Br)cc2s1	6	5
89	CC(C)CC(O)C(=O)N1CCCN(C(=O)c2ccco2)CC1 (centres undefined)	9	9
90	CCn1nc(C(=O)N(C)Cc2ccco2)c2c1CCC(NCc1ccc3c(c1)OCO3)C2 (centres undefined)	17	14
91	Cc1nc2ccccc2n1CCC(=O)NN=Cc1c(O)ccc2ccccc12	1	6
92	COc1ccccc1CNC(=O)N1CCCN(C(=O)c2ccc[nH]c2=O)CC1	-6	-7
93	c1ccc(-c2nnc(CSc3nnc(C4CC4)n3C3CC3)o2)cc1	-1	14
94	CC(=O)Nc1noc2ncccc12	14	8
95	CCCCCc1ccc(NS(=O)(=O)c2ccc3c(c2)NC(=O)CO3)cc1	5	3
96	COc1ccccc1-c1nccn1CC1(c2ccccc2)CCOCC1	-1	20

Overlap with the part before: 4 entries, followed by the next part.
item	mol	NPYLR7 agonist	NPYLR7 agonist max-min
93	c1ccc(-c2nnc(CSc3nnc(C4CC4)n3C3CC3)o2)cc1	-1	14
94	CC(=O)Nc1noc2ncccc12	14	8
95	CCCCCc1ccc(NS(=O)(=O)c2ccc3c(c2)NC(=O)CO3)cc1	5	3
96	COc1ccccc1-c1nccn1CC1(c2ccccc2)CCOCC1	-1	20
97	Cc1ccc(SCCN2CCC(N3CCCC3)C2)cc1C (centres undefined)	6	4
98	CCOC(=O)C1CCCN(C(=O)c2ccc(CSc3nc(CC)cc(N4CCN(c5ccccc5F)CC4)n3)cc2)C1 (centres undefined)	9	12
99	Cc1ccc2nc(C)c(NC(=O)C3CC3)c(=O)n2c1	1	0
100	Cc1cc(S(=O)(=O)NCCn2ncccc2=O)ccc1F	2	2
101	c1csc(-c2noc(CSc3ccc4c(c3)OCCO4)n2)c1	2	-2
102	O=C1CN(C(=O)CC2(C(=O)O)CCCCC2)CCN1	0	-1
103	C(=NNc1nncc2ccccc12)c1ccco1	-1	30
104	CC1(C)CC2=NN(c3ccccc3)P(=O)(N3CCCCCC3)C2=C(N2CCCC2)C1 (centres undefined)	-1	-8
105	CCN(C(=O)CCCc1ccc(C)s1)C1CC(=O)NC1=O (centres undefined)	-2	-3
106	Cc1ccc(OCc2cc(C(=O)NCc3ccnc4ccccc34)no2)cn1	2	-1
107	COc1ccc(CCNC(=O)c2cccnc2N2CCN(S(=O)(=O)c3cccc(Cl)n3)CC2)cc1OC	1	-1
108	CC(=O)Nc1cccc(-c2cc3nc(NCc4cccnc4)n(C)c(=O)c3s2)c1	5	1
109	C=CCSc1nnc(-c2ccccc2F)n1-c1ccc(OC)cc1	-4	8
110	COC(=O)CC(N)c1ccc(C(C)(C)C)cc1 (centres undefined)	11	10
111	Cc1cccnc1C(NC(=O)C1CCN(CCc2c[nH]c3ccccc23)CC1)c1ccc(F)cc1 (centres undefined)	7	10
112	COCCN1C(=O)C(c2c(C(C)C)[nH]n(-c3ccc(Cl)c(Cl)c3)c2=O)=C([n+]2ccccc2)C1=O	3	4
113	O=C(Nc1nc2ncccc2[nH]1)C1CC1c1ccc(Cl)cc1 (centres undefined)	6	4
114	O=C(CCC1(Cc2ccc3ccccc3c2)CCC(=O)N1)NCc1ccc2c(c1)OCO2 (centres undefined)	4	3
115	COC(=O)C1C(=O)c2c([nH]c(C(=O)OC3CCCC3)c2C)CC1C (centres undefined)	9	0
116	Cc1ccc(S(=O)(=O)CCC(=O)Nc2ccc(C)c(C)c2)cc1	5	4
117	N#CCc1ccc(OCCN2CCN(C(=O)C3CCCC3)CC2)cc1	1	2
118	Cc1cccc(CC(=O)N(C)CC2Cc3ccccc3O2)c1 (centres undefined)	6	0
119	S=c1[nH]ncn1-c1cccc(Cl)c1	8	12
120	CC1(C(=O)Nc2ccc3c(c2)OCCO3)CCN1Cc1ccccc1OC(F)F (centres undefined)	6	-2

From PubChem BioAssay

A portion of the library. The share of hits here may be higher or lower than overall.
